Screens deposited in PubChem BioAssay by National Center for Advancing Translational Sciences (NCATS).
Cruzain noTriton: cruzain (T. cruzi) inhibition without detergent. Potency, µM, for inactives: max response, negative = inhibition, most hits filed as inhibitors. AID 1476. 200,000 compounds, 2.3% hits. purified cruzain, Z-FR-AMC fluorescence, no detergent; active = well fitted curve in the direction sought with a large enough effect; inconclusive = small, poorly fitted or top-dose-only effect, or another doubt; inactive = no such curve, though single readings can be large; an effect the other way counts as inactive or inconclusive;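 note: plate controls were enzyme without inhibitor for no effect and buffer without enzyme for full effect; nearly all actives have a fitted effect of over 40% in size; top concentration of the series not given in the record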
Target sequence (P25779 123-467 limits assumed): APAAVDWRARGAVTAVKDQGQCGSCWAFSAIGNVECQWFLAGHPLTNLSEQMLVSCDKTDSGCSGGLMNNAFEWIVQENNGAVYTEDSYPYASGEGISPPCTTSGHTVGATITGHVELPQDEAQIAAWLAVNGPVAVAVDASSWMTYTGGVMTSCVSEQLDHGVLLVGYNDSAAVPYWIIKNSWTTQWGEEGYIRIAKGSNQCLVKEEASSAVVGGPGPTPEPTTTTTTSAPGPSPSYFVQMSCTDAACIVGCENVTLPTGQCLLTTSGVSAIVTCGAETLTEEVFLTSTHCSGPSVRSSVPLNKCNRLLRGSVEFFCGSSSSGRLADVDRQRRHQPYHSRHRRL
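Purified cruzain at 1.5 nM, pre-incubated 15 min with compound at room temperature in 100 mM sodium acetate pH 5.5, 5 mM DTT, 0.00005% Triton X-100. Reaction started with 2 uM Z-FR-AMC; AMC fluorescence increase over 60 s gives rate.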
StopGo reporter: FMDV 2A StopGo reporter, luciferase signal; human cells with a luciferase reporter of 2A StopGo recoding; control for the full effect not named in the record; Potency, µM (series often up to 57.9 µM), for the others: top-dose signal change, negative = less light; 410,000 compounds, 1.2% hits; AID 1159524; active = well fitted falling curve with a large enough effect; inconclusive = small, poorly fitted or top-dose-only effect; inactive = no such curve, though single readings can be large or run the other way; tested in HEK293T cells; note: % is set by controls: 0 for no effect and ±100 for the full control effect; nearly all actives have a fitted effect of over 45% in size; luciferase light after 4 h
Cruzain Triton: blocks cruzain activity in presence of Triton detergent | purified cruzain, Z-FR-AMC fluorescence, 0.01% Triton | AID 1478 | Potency, µM, without a hit: max response, negative = inhibition, hits mostly inhibitors | 200,000 compounds, 0.43% hits | P25779; active = well fitted curve in the direction sought with a large enough effect; inconclusive = small, poorly fitted or top-dose-only effect, or another doubt; inactive = no such curve, though single readings can be large; an effect the other way counts as inactive or inconclusive;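 note: plate controls were neutral wells for no effect and buffer without enzyme for full effect; nearly all actives have a fitted effect of over 40% in size; top concentration of the series not given in the record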
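Compounds were screened in titration against cruzain (1.5 nM) with 0.01% Triton X-100 to counter colloidal aggregation. Activity was the AMC fluorescence increase over 60 s after adding 2 uM Z-FR-AMC at pH 5.5.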
RE007 growth inh: less growth of the S. pombe RE007 Vpr strain; S. pombe RE007 Vpr strain, BacTiter-Glo ATP luminescence, 24 h; control for the full effect not named in the record; Potency, µM (highest dose often 92.2 µM), for the others: at the highest dose activity change, negative = less growth; 360,000 compounds, 0.21% hits; active = well fitted falling curve with a large enough effect; inconclusive = small, poorly fitted or top-dose-only effect; inactive = no such curve, though single readings can be large or run the other way;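 note: % is set by controls: 0 for no effect and ±100 for the full control effect; nearly all actives have a fitted effect of over 50% in size; the assay follows cell death caused by Vpr and the record does not say whether a fall means rescue or toxicity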
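Fission yeast RE007 carrying one integrated HIV-1 vpr copy, seeded at OD 0.01 in PMG+AL medium with 23 nL pinned compound. Grown 24 h at 30 degrees; viability read by BacTiter-Glo luminescence after 5 min.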
NS1 function inh: influenza NS1 inhibition. Potency, µM (doses to about 46.1 µM), for the others: at the highest dose activity, positive = more growth. 270,000 compounds, 0.4% hits. S. cerevisiae slowed by influenza A NS1, growth recovery by OD600; note: actives are rising curves; nearly all actives have a fitted effect of over 50% in size
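S. cerevisiae expressing influenza A NS1, grown in glucose, washed, then diluted 1:100 into pH 6.0 -URA galactose medium with 23 nl compound. Growth recovery read as OD600; NS1-free strain serves as control.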
Lassa entry inh: blocks Lassa virus binding to or entry into cells. Lassa virus pseudotype entry inhibition, cell reporter; control for the full effect not named in the record. Potency, µM (top dose mostly 37.9 µM), without a hit: at the highest dose activity change, negative = inhibition, actives largely listed as inhibitors. 300,000 compounds, 1.2% hits; active means well fitted inhibition curve with a large enough effect; inconclusive means small, poorly fitted or top-dose-only effect, or effect the other way; inactive means flat fitted curve, though single readings scatter; tested in HEK293 cells; note: % is set by controls: 0 for no effect and ±100 for the full control effect; nearly all actives have a fitted effect of over 50% in size; luciferase read-out
Marburg entry inh: blocks Marburg virus binding to or entry into cells; 300,000 compounds, 1.8% hits; Potency, µM (top dose mostly 37.8 µM), without a hit: top-dose activity change, negative = inhibition, hits mostly inhibitors; Marburg virus pseudotyped entry inhibition, cell reporter; control for the full effect not named in the record; about a third of the inactives were read at about 46 µM; active = well fitted inhibition curve with a large enough effect; inconclusive = small, poorly fitted or top-dose-only effect, or effect the other way; inactive = flat fitted curve, though single readings scatter; tested in HEK293 cells; about a fifth of its hits are not listed in these tables; note: % is set by controls: 0 for no effect and ±100 for the full control effect; luciferase read-out
SARS PLP yeast: SARS-CoV PLP inhibition in yeast | S. cerevisiae expressing SARS-CoV PLpro, growth rescue; control for the full effect not named in the record | Potency, µM (top dose mostly 32.9 µM), for inactives: at the highest dose activity, positive = growth rescue | 330,000 compounds, 0.19% hits; note: 0% is about no effect; nearly all actives have a fitted effect of over 55% in size; growth read by luminescence after 48 h
Active calls of the source: *; ? = inconclusive; . = not tested or not shown; ! = repeats disagree; [ ] = dose if it differs, or a comment. Unless noted, calls come from the whole dose curve; as a rule, active means well fitted rising curve with a large enough effect; inconclusive means small, poorly fitted or top-dose-only effect; inactive means no such curve, though single readings can be large or run the other way. Potency is the fitted concentration of half-maximal effect.

SMILES	Cruzain noTriton	StopGo reporter	Cruzain Triton	RE007 growth inh	NS1 function inh	Lassa entry inh	Marburg entry inh	SARS PLP yeast
Cc1nn(C)cc1C(C(=O)NC1CCCCC1)N(CCc1ccccc1)C(=O)c1cnccn1 (stereo not drawn)	.	13%	.	11%	1%	.	.	0%
Cc1nnc(N2C(=O)C(O)=C(C(=O)c3ccco3)C2c2ccc(C(C)C)cc2)s1 (stereo not drawn)	?	-21%	-6.3%	1%	24%	2%	20%	22%
NS(=O)(=O)c1ccc(NC(=S)N2CCC(Cc3ccccc3)CC2)cc1	.	?	.	8%	-9%	?	-7%	1%
CCOC(=O)N1CCC(NC(=O)c2ccc(Cl)cc2)CC1	.	-1%	.	7%	1%	.	.	1%
O=C(CCC1CCCCC1)Nc1ccccc1C(=O)N1CCOCC1	.	-7%	.	5%	0%	3%	-2%[46.1 µM]	1%
COc1cc2[nH]c3c(N4CCC(C(N)=O)CC4)ncnc3c2cc1OC	8%	.	4.2%	.	-4%	.	.	-8%
COC(=O)C1CCN(C(=O)COC(=O)CSc2ccc(C(N)=O)cc2[N+](=O)[O-])CC1	.	2%	.	4%	.	-4%	4%	0%
O=C(COc1cccc(Br)c1)N/N=C1\CCSC1	.	5%	.	14%	.	?	?	-1%
Cc1ccc(N2C(=O)CC(N3CCN(c4ccc(F)cc4)CC3)C2=O)c(C)c1 (stereo not drawn)	.	-8%	.	-24%	15%	6%[46.1 µM]	-14%[46.1 µM]	-6%
CCOc1ccccc1C=C1SC(=S)N(CC)C1=O	.	-9%	.	-8%	.	-12%[46.1 µM]	13%[46.1 µM]	.
Cc1oc2c(c1C(=O)Nc1cccc3ccccc13)CCCC2	-5%	-24%	-5.3%	-20%	-16%	-20%	-30%	-11%
Cc1c(NC(=O)C(C)OC(=O)CNC(=O)c2ccccc2)c(=O)n(-c2ccccc2)n1C (stereo not drawn)	?	-3%	?	-7%[3.69 µM]	2%	-1%	-21%	-8%
CC1CCC(C(C)C)C(OC(=O)COC(=O)c2ccc(=O)[nH]c2)C1 (stereo not drawn)	?	-28%	-5.3%	57%	-38%	-16%	-14%	-13%
CC12CC3CC(C)(C1)CC(C(O)CN1CCOCC1)(C3)C2 (stereo not drawn)	.	-26%	.	18%	-8%	.	.	8%
O=C(Cc1ccccc1)NC(NC(=S)Nc1cc(Cl)ccc1Cl)C(Cl)(Cl)Cl (stereo not drawn)	?	3%	3.5%	33%	8%	-10%	-16%	-8%
Cc1cccc(N(CC(=O)NC2CCCC2)C(=O)CCC(=O)Nc2cc(C)on2)c1	.	10%	.	-8%	8%	?	-5%[46.1 µM]	2%
Cc1cc(CNC(=O)c2ccc3oc(C(C)C)nc3c2)nn1C	.	-15%	.	-15%	-9%	.	.	4%
COC(=O)[C@H](CC(C)C)NCc1cccc(CN[C@@H](CC(C)C)C(=O)OC)c1	.	0%	.	-14%	-28%	.	.	-2%
CC1(C)CC(=O)C2=C(C1)OC(N)=C(C#N)C2Cc1ccccc1 (stereo not drawn)	1%	-14%	1.6%	-2%	1%	-3%	1%	-4%
COc1ccc(-c2nc3sc(CCNC(=O)Cc4ccccc4)c(C)n3n2)cc1	5%	12%	-2.6%	.	.	1%[46.1 µM]	.	.
Cn1c(=O)c2ncn(CC(=O)NC3CCCCCC3)c2n(C)c1=O	-4%	22%	-8.7%	-17%	3%	4%	24%[46.1 µM]	4%
CCCNC(=O)c1c(N)n(-c2cccc(OC)c2)c2nc3ccccc3nc12	?	?	5.2%	-3%	-156%	15%	-20%	-13%
COC(=O)c1cc(C)ccc1OCc1ccc([N+](=O)[O-])cc1	.	15%	.	3%	-6%	-5%	2%	1%
COc1cccc(N2C(=O)C3CCCN3C2c2ccc(N(C)C)cc2)c1 (stereo not drawn)	-16%	-5%	-6.4%	11%	-87%	.	.	-12%
CCOC(=S)N/C(=N\S(=O)(=O)c1ccccc1)c1ccccc1	-3%	-1%	1.4%	2%	12%	-4%	22%	-8%
Cc1ccc(SCc2nc(N)nc(Nc3ccccc3C)n2)cc1C	-2%	13%	-2.8%	-6%	-12%	.	.	-24%
CC1CCN(C(=O)c2[nH]cnc2C(=O)N[C@@H](CCCCNC(=O)OC(C)(C)C)C(=O)OC(C)(C)C)CC1	.	0%	.	6%	-7%	.	.	1%
N#Cc1ccc(C(=O)NCC(c2ccco2)N2CCCC2)cc1 (stereo not drawn)	-4%	-25%	1.9%	1%	7%	7%	?	-12%
Cc1ccccc1SCC(=O)OCC(=O)Nc1sccc1C(N)=O	-8%	-16%	-7.0%	-19%	-40%	23%	-20%	-92%
Cc1csc(NC(=O)CSc2nc(C)nc3c2c(=O)n(C)c(=O)n3C)n1	-8%	?	-6.1%	-2%	2%	.	.	-3%
Clc1ccc(C(c2ccc(Cl)cc2)n2cc[n+](CC(OCc3ccc(Cl)cc3Cl)c3ccc(Cl)cc3Cl)c2)cc1 (stereo not drawn)	?	?	?	18%	-32%	.	13µM*	.
COC(=O)NCC(c1cccnc1)N1CCN(c2ccc(F)cc2)CC1 (stereo not drawn)	23%	-18%	-12%	.	.	?	.	.
CC(C)CC(COCc1ccc([N+](=O)[O-])cc1)N1CCN(C(=O)c2ccc(C(F)(F)F)cc2)CCC1=O (stereo not drawn)	?	?	-5.8%	2%	-25%	-19%	?	4%
N#CC1=C(N)Oc2n[nH]c(-c3ccccc3)c2C1c1cccnc1 (stereo not drawn)	-6%	-27%	-0.9%	10%	-5%	2%	-9%	7%
CC1(C)C(CC2OCC(CN3CCCCC3)O2)[C@H]2CC[C@@H]1C2 (stereo partly drawn)	.	-16%	.	-5%	0%	.	.	-1%
Cc1ccc(NC(=O)O/N=C/c2ccc(F)cc2)cc1	.	36%[activator]	.	-19%	-11%	.	.	-7%
COc1ccc(C2c3c(oc4ccccc4c3=O)C(=O)N2Cc2ccc3c(c2)OCO3)cc1 (stereo not drawn)	17%	57%[activator]	-1.0%	.	.	3%[46.1 µM]	16%[46.1 µM]	.
CC(C)(C)c1cc(NCc2ccccn2)n2ncc(-c3ccccc3)c2n1	.	25%	.	-1%	-51%	?	?	-6%
COCCCNCCOCCOc1ccc(Cl)cc1Br	1%	-3%	1.5%	-9%	-8%	?	12µM*	-3%
Cc1ccc(C(=O)CCC(=O)NC2CCCC(C)C2C)cc1 (stereo not drawn)	.	4%	.	-1%	5%	1%[46.1 µM]	?	-4%
COC(=O)c1[nH]c2c(c1C)C(=O)CC(c1ccc(OC)c(OC)c1)C2 (stereo not drawn)	.	-7%	.	-9%	-1%	.	.	-1%
O=C(CSc1nnc2ccccn12)Nc1ccccc1Cl	.	30%	.	10%	.	10%[46.1 µM]	?	23%
CC(=O)Nc1ccc(S(=O)(=O)NCCSCc2ccc(Cl)cc2Cl)cc1	-1%	0%	-11%	13%	-1%	?	?	-1%
COc1ccc(CCNC(=O)Nc2cc(F)c(F)cc2Cl)cc1OC	.	-18%	.	-3%	-13%	.	.	-1%
CC(Nc1ccc(Br)cc1)C(=O)N/N=C/c1ccccc1OCc1ccccc1 (stereo not drawn)	?	-9%	2.9%	-1%	-1%	-10%	?	4%
CCn1ncc(Br)c1C(=O)NC(C)c1ccccc1 (stereo not drawn)	6%	3%	0.8%	-9%	-8%	11%	-4%	23%
COc1ccc(CCN(Cc2ccccn2)C(=S)Nc2cccc(C)c2)cc1OC	.	2%	.	-2%	.	11%	-4%	-1%
CN(C)C(=O)Oc1noc2cc(Cl)ccc12	.	4%	.	6%	3%	.	.	0%
COc1ccc(N2CC(NC(=O)C(=O)c3c(C)[nH]c4ccccc34)CC2=O)cc1 (stereo not drawn)	-1%	-7%	-6.7%	.	.	-1%[46.1 µM]	.	.
COc1ccc(CN2C(=O)CC(Cc3cc(C)cc(C)c3)C2=O)cc1OC (stereo not drawn)	21%	-25%	-2.3%	27%	1%	-8%	?	7%

Single values from the results shown:
Cn1c(=O)c2ncn(CC(=O)NC3CCCCCC3)c2n(C)c1=O in Lassa entry inh → 4%
COc1ccc(-c2nc3sc(CCNC(=O)Cc4ccccc4)c(C)n3n2)cc1 in StopGo reporter → 12%

(list continues)
SMILES	Cruzain noTriton	StopGo reporter	Cruzain Triton	RE007 growth inh	NS1 function inh	Lassa entry inh	Marburg entry inh	SARS PLP yeast
Cc1ccc2nc(SCC(=O)c3ccc(Cl)s3)[nH]c2c1	?	20%	-8.5%	-13%	-14%	9%	2%	-4%
O=C(Cc1ccc(Cl)cc1)NNC(=S)NC(=O)c1cccnc1	.	-20%	.	5%	9%	.	.	2%
COc1cccc(CNC(=O)C2CCN(S(=O)(=O)c3cn(C)cn3)CC2)c1	5%	-5%	1.8%	.	.	-2%[46.1 µM]	.	.
CSc1ccccc1NC(=O)CN(C)CC(=O)Nc1ccc(Cl)cc1[N+](=O)[O-]	.	-21%	.	-17%	.	1%	-24%[46.1 µM]	-9%
CC1=C/C(=C\c2ccc3c(c2)OCO3)C(=O)S1	7%	-17%	-4.7%	?	-133%	-2%	?	-35%
CCN(CC)c1ccc(NC(=O)c2cccc(C)c2)cc1S(=O)(=O)Nc1ccccc1OC	?	-7%	-4.7%	?	24%	?	?	-14%
O=C1CSC(c2ccccc2F)N1c1cc(Cl)ccc1O (stereo not drawn)	-3%	-6%	1.3%	10%	-47%	0%	25%	-11%
CN1C2C=C3C(C#N)=C(N)C(C#N)(C#N)[C@H](c4c(F)cccc4F)[C@H]3C1CC2 (stereo partly drawn)	-2%	.	-6.0%	-12%	-3%	-16%	?	2%
CNC(=O)COc1coc(CN2CCN(c3ccccc3)CC2)cc1=O	.	-13%	.	4%	0%	?	?	-9%
C=C1C(=O)O[C@@H]2C[C@@H](C)[C@@H]3C=CC(=O)[C@@]3(C)[C@@H](O)[C@H]12	.	8.9µM*!	.	5%[18.4 µM]	?	.	.	0%
